# eIF4H FP inh = inhibitors of RNA binding by human eIF4H; Q15056; eIF4H fluorescence polarization binding assay; inhibition, % at 35 µM; 290,000 tested, 0.94% active; AID 2012;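 active = 50% or more with normal probe brightness, or confirmed in later tests; about a fifth of its hits are not listed in these tables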;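 note: calls also rest on retests at 20 µM and on dose response follow-up; 0% = protein and probe with vehicle and 100% = probe without protein; strong numbers were not always called active; many hits fall short of the cut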
# HIV Env fusion = blocks HIV Env-driven cell-cell fusion. HeLa-JRFL Env/CEM21 cell fusion, luciferase. inhibition, % at 12.3 µM. 360,000 tested, 1.1% active;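 active = mean replicate inhibition score of at least 50 and every replicate individually at or above 50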;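 note: 0% = plate neutral controls and 100% = maraviroc near 300 nM; one replicate is shown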
# CSC inhib = blocks cancer stem cells; cancer stem cell-like cells viability, luminescence; inhibition, % at 7.5 µM; 300,000 tested, 1.1% active;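 active = mean at 75% or more and at least half the replicates too; tested in HMLE shEcad cells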;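 note: 0% = median of negative and 100% = median of positive control wells; the first replicate is given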
# PABP polyA inh = PABP-poly(A) binding inhibition. PABP-poly(A) RNA binding, fluorescence polarization. inhibition, % at 35 µM. 290,000 tested, 1% active;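 active = 50% or more with normal probe brightness, or confirmed in later tests; about a fifth of its hits are not listed in these tables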;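 note: calls also rest on retests at 20 µM and on dose response follow-up; controls were probe without protein and protein plus probe with vehicle; some compounds called inactive have numbers as strong as hits; many hits fall short of the cut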
# Target sequence (P11940 whole entry, looked up): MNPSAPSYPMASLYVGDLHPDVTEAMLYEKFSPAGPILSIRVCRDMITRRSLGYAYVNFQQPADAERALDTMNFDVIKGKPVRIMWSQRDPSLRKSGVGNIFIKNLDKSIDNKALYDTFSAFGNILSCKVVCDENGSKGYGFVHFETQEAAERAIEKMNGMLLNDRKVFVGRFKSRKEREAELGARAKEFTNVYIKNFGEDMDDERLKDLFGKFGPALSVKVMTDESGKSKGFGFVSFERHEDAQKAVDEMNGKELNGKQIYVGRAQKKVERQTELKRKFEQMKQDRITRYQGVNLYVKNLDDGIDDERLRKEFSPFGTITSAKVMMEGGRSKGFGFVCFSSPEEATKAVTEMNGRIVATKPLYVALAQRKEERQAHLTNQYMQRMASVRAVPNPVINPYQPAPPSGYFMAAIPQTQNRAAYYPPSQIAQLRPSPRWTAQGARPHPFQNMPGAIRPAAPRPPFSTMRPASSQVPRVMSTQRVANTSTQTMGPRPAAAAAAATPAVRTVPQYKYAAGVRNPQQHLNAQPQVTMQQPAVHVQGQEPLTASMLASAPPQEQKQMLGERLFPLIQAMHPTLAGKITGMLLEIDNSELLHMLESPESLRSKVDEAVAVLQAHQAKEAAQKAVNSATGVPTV
# Yeast UUG start = alters start codon recognition fidelity in yeast | activity score, % at 18.7 µM | AID 602363 | S. cerevisiae UUG-firefly luciferase reporter, luminescence/redox ratio | 350,000 tested, 0.13% active;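 active = replicate mean at a twofold rise or more, about +100% in these data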;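 note: firefly luciferase made from a UUG start codon reports start codon fidelity; reporter light over untreated wells divided by growth signal over untreated wells; some hits fall short of that in this replicate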
# Rce1 inhib = yeast Ras-converting enzyme inhibition; Q03530; yeast membranes, quenched prenylated peptide cleavage fluorescence; calls only; 290,000 tested, 0.27% active; AID 2563;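 active = fall in fluorescence gain of 50% or more versus controls, with final raw signal at or below 3038400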;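 note: plate controls were neutral control wells for no effect and wells lacking membranes for full effect; tested at 10 µM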
# MT1-MMP act inh = inhibitors of human MT1-MMP activation; P50281; HT1080 RFP-PRO-GFP cells, GFP/RFP ratio fluorescence, overnight; percent of plate control window, DMSO zero; GFP/RFP ratio change, % at 20 µM; 360,000 tested, 0.061% active; AID 651647;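 active = GFP/RFP ratio change of at least 30% with cell ATP level not reduced by more than half and red fluorescence within 50% of control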; note: strong numbers were not always called active
#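 Material: RFP-PRO-GFP reporter HT1080 cells. Dosing: single-point 20 µM compound, 1% DMSO. Controls: DMSO and RFP-L50D-GFP cell wells. Timing: cells overnight before dosing, compound overnight, 37 °C, 5% CO2. Measure: GFP/RFP fluorescence ratio.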
# MT1-MMP act inh RFP = further read-out of MT1-MMP act inh, marked with its call; RFP signal change, %; measured here: RFP expression control read;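 0 = vehicle wells; hits needed this value within 50% of zero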
# * hit, by the source's call; i = inactive; nt = no result given.
entry	smiles	eIF4H FP inh	HIV Env fusion	CSC inhib	PABP polyA inh	Yeast UUG start	Rce1 inhib	MT1-MMP act inh	MT1-MMP act inh RFP
1	CCOc1ccc(N2CC(C(=O)NCCc3ccccc3)CC2=O)cc1 (stereo not given)	8	-46	-24	3	-11	i	0	2
2	N/C(CN1CCSCC1)=N\OCc1c(F)cccc1Cl	-4	4	-15	-3	-20	i	0	2
3	Cc1cc(NC(=O)COC(=O)CCS(=O)(=O)c2ccc(Cl)cc2)no1	-4	-6	-7	-1	-11	nt	1	-2
4	O=C(COC(=O)c1cccs1)Nc1cccc(S(=O)(=O)NC2=NCCCCC2)c1	-6	12	-10	9	nt	i	-1	1
5	O=C(c1ccccc1-c1ccccc1)N1CCCCC1	3	14	-9	-10	nt	i	2	5
6	Cc1cc(C)n(-c2nnc(C)n2/N=C/c2ccco2)n1	6	8	0	-2	-17	i	1	4
7	Oc1ccc(C=NC2CCCCC2)c(O)c1	2	19	8	-1	nt	i	-7	0
8	CC(=O)Nc1ccc(-c2ccnc3c2CC(C(=O)Nc2cccc(Oc4ccccc4)c2)O3)cc1 (stereo not given)	nt	19	nt	nt	5	nt	1	-19
9	CN(C)c1ccc(/C=C(\Cl)c2nc3ccccc3s2)cc1	27	nt	92*	14	-51	nt	-19	-5
10	O=C1COc2ccc(C(=O)COC(=O)c3ccc([N+](=O)[O-])cc3Cl)cc2N1	nt	-17	nt	nt	-13	nt	3	2
11	Cc1cc2nc(CCN3CCOCC3)n(S(=O)(=O)c3ccc(C(C)(C)C)cc3)c2cc1C	-7	nt	55	2	-8	i	-13	-6
12	Cc1ccc(CNS(=O)(=O)N(C)C)cc1	0	65	0	7	-14	i	4	5
13	CCOC(=O)C1(CCc2ccccc2)CCN(C(=O)c2cc(C)nc(C)n2)CC1	-10	20	-7	-5	nt	i	2	3
14	Cc1c(C(=O)NCCc2ccccc2)oc2ccc(S(=O)(=O)N3CCOCC3)cc12	9	-5	-21	-12	-1	i	2	-1
15	NC(=O)CCN(Cc1ccccc1)S(=O)(=O)c1ccccc1	-15	-362	2	-8	21	i	6	2
16	COc1ccccc1OCc1ccc(C(=O)N2CCN(C(=O)c3ccco3)CC2)cc1	7	nt	-11	1	4	i	1	-1
17	COc1ccc(NC(=O)CCN2C(=O)C3CC=C(Cl)CC3C2=O)cc1 (stereo not given)	7	nt	5	2	nt	i	7	0
18	CCCCn1c(N)c(N(C)C(=O)C2CC(=O)N(Cc3ccco3)C2)c(=O)[nH]c1=O (stereo not given)	nt	nt	-14	nt	-12	nt	-1	1
19	Cc1cc(Cl)ccc1C(=O)C1CCCN(C(=O)c2cc(C(C)C)no2)C1 (stereo not given)	-2	10	-4	2	-9	i	7	-1
20	CCCCNC(=O)C1CC(=O)N(c2ccc(OC)cc2)C1c1ccc(OC)cc1 (stereo not given)	-5	-17	nt	3	-3	i	0	2

# Structural class: the compounds so far with four or more nitrogen atoms
entry	smiles	eIF4H FP inh	HIV Env fusion	CSC inhib	PABP polyA inh	Yeast UUG start	Rce1 inhib	MT1-MMP act inh	MT1-MMP act inh RFP
6	Cc1cc(C)n(-c2nnc(C)n2/N=C/c2ccco2)n1	6	8	0	-2	-17	i	1	4
18	CCCCn1c(N)c(N(C)C(=O)C2CC(=O)N(Cc3ccco3)C2)c(=O)[nH]c1=O (stereo not given)	nt	nt	-14	nt	-12	nt	-1	1

# Later entries.
entry	smiles	eIF4H FP inh	HIV Env fusion	CSC inhib	PABP polyA inh	Yeast UUG start	Rce1 inhib	MT1-MMP act inh	MT1-MMP act inh RFP
21	CCN(CC(=O)Nc1c(F)cccc1F)C(=O)c1cc2ccccc2oc1=O	nt	-5	1	nt	-11	i	-3	0
22	Cn1cccc1Cc1nnc(SCC(=O)NCCc2ccccc2)n1-c1ccc(F)cc1	-10	16	-1	8	-5	i	1	0
23	CCCCC1=CC2=CC(=O)C(C)(OC(=O)CC)C(=O)C2=CN1Cc1ccco1 (stereo not given)	70*	nt	-13	64*	-19	i	3	12
24	O=C(CNCCc1ccccc1)Nc1ccc(C(=O)N2CCCCC2)cc1	8	7	7	1	-3	i	1	2
25	Cc1cccc(CC(=O)Nc2cc(C)c3c(=O)oc4ccccc4c3n2)c1	1	-15	24	1	-9	i	-2	-5
26	O=C(O)/C=C/c1cn(Cc2ccccc2Cl)nc1-c1ccccc1	-7	-2	-1	2	18	i	-5	-3
27	O=C(COC(=O)c1cc(Br)ccc1O)Nc1ccc2c(c1)OCCO2	nt	2	2	nt	-19	i	2	5
28	O=C(/C=C/c1ccc(O)c(O)c1)NC(=O)c1ccccc1O	38	nt	0	23	-1	i	-6	-11
29	CCOC(=O)c1c(NC(=O)c2cc(-c3ccc(O)cc3)on2)sc(C(C)=O)c1C	6	2	-7	4	-29	i	-2	-5
30	Fc1ccc(-c2csc(Nc3ccccn3)n2)cc1	4	-473	13	-6	-36	nt	0	-15
31	Cc1nc(N2CCN(c3ccccc3)CC2)[nH]c(=O)c1Cc1ccccc1	5	-117	-2	-1	-11	i	7	-9
32	COc1ccccc1N1CCN(/N=C/c2ccc(C(=O)O)cc2)CC1	1	-43	-9	3	-31	i	2	1
33	CCOC(=O)c1cnc(-n2cc(C)cn2)nc1Nc1ccccc1OC	-4	-17	-3	-14	-27	i	-1	-1
34	COc1ccc(/C=N/Nc2ncnc3sc4c(c23)CCCC4)cc1O	-4	-15	55	10	nt	i	-8	-8
35	CC1(C)O[C@@H]2[C@H](O1)[C@@H](CO)O[C@H]2n1c(N2CCCCC2)nc2c(N)ncnc21	nt	-33	-22	nt	-20	nt	4	0
36	NC(=O)[C@H]1CC2(CC(c3cccc(NC(=O)[C@H]4CCC(=O)N4)c3)=NO2)CN1C(=O)CC(c1ccccc1)c1ccccc1 (stereo not given in full)	-8	9	-13	1	nt	i	nt	nt
37	C=CC[C@@H](CC(=O)N[C@@H](CO)Cc1ccccc1)C(=O)N[C@@H](COC(=O)[C@@H](CC=C)Cc1ccc(F)cc1)Cc1ccccc1	nt	9	nt	nt	0	nt	-11	-12
38	COc1ccc(S(=O)(=O)N2CCOCC2)cc1NC(=O)Cc1sc(C)nc1-c1ccc(F)cc1	nt	11	nt	nt	-2	i	-7	-3
39	Cc1nnc(N(Cc2ccccc2)C(=O)c2cnccn2)s1	2	nt	11	-3	-6	i	-3	-5
40	COc1ccc(/C=C/C(=O)N2CCN(S(=O)(=O)c3ccccc3Br)CC2)cc1OC	nt	-8	-4	nt	-15	nt	12	-6
41	O=C1C=C(c2cc3ccccc3s2)C[C@@H](c2ccc(Cl)cc2)C1	nt	9	nt	nt	-22	nt	0	-3
42	O=C1NC(=Nc2ccccc2)S/C1=C/c1cccs1	11	-38	27	-14	nt	i	-1	5
43	CCN(C(=O)Cn1nc(C)c([N+](=O)[O-])c1C)C1CCS(=O)(=O)C1 (stereo not given)	nt	-3	nt	nt	nt	i	-1	3
44	CCOC(=O)[C@H]1[C@H]2COc3ccc(Br)cc3[C@@H]2N2C(=O)N(c3ccc(F)cc3)C(=O)[C@@]12C	nt	13	5	nt	5	nt	2	-2
45	CN1CCN(C(=O)C2=C[C@@H](c3ccccc3)C[C@@H](OCCCCO)O2)CC1	-14	-6	0	2	1	i	10	10
46	O=C(OCc1nc2scc(-c3ccccc3)c2c(=O)[nH]1)c1ccco1	nt	-198	-8	nt	-15	i	3	5
47	CC(C)(Oc1ccc(Cl)cc1)C(=O)N1CCC(C(N)=O)CC1	-1	7	2	-5	-17	i	-1	-3
48	CCOc1ccc2nc(NCCCO)[nH]c2c1	15	nt	-14	2	-7	nt	5	2
49	O=C(NCCCc1ccccc1)C(=O)NCC1OCCN1S(=O)(=O)c1ccc(F)cc1 (stereo not given)	-9	-148	-33	2	8	i	4	-1
50	Cc1ccc2c(c1)nnn2C1CCN(CC(=O)N(c2ccccc2)c2ccccc2)CC1	5	4	6	5	-9	i	1	-11
51	Cc1ccc2cc(C)c(SCC(=O)NCc3ccco3)nc2c1	6	2	-10	6	-18	i	-2	-5
52	CN(CCc1ccccc1)C(=O)c1ccc(NC(=O)Cc2ccc(NC(=O)C3CCCN(C(=O)CCc4ccccc4)C3)cc2)cc1 (stereo not given)	nt	27	nt	nt	-19	nt	11	-26
53	O=C(O)c1ccccc1SSc1ccccc1C(=O)O	0	0	-3	7	-12	i	0	1
54	O=C(Nc1ncccc1Cl)c1cccc(F)c1	-8	-100	-13	11	-19	i	-4	2
55	Cc1nn(-c2ccccc2)c(Cl)c1C(=O)NCC(C)C	-1	nt	-2	5	nt	i	1	2
56	CCOC(=O)CSc1nnc(CNC(=O)c2ccc(OC)cc2OC)n1-c1ccc(OC)cc1	5	-3	-12	-7	-4	nt	6	7
57	CN(c1cccc(NC(=O)CN2C(=O)c3ccccc3S2(=O)=O)c1)S(C)(=O)=O	8	nt	-17	-5	-11	i	-3	2
58	N#Cc1c(NC(=S)NC(=O)C2CCCC2)sc2c1CCCCC2	-12	-47	54	7	nt	i	-8	-11
59	CCC(CC)NC(=O)Cc1ccccc1OC	1	nt	-3	4	-3	i	-2	0
60	C/C(=N\N=C(c1ccccc1)c1ccccc1)c1ccco1	5	nt	-4	-7	nt	i	-3	-2

# One compound at a time, as listed above. Order of screens: eIF4H FP inh | HIV Env fusion | CSC inhib | PABP polyA inh | Yeast UUG start | Rce1 inhib | MT1-MMP act inh | MT1-MMP act inh RFP
# Listed for CN(c1cccc(NC(=O)CN2C(=O)c3ccccc3S2(=O)=O)c1)S(C)(=O)=O : 8 | nt | -17 | -5 | -11 | i | -3 | 2
# Listed for O=C1NC(=Nc2ccccc2)S/C1=C/c1cccs1 : 11 | -38 | 27 | -14 | nt | i | -1 | 5

# (listing goes on)
# Order of values – eIF4H FP inh, HIV Env fusion, CSC inhib, PABP polyA inh, Yeast UUG start, Rce1 inhib, MT1-MMP act inh, MT1-MMP act inh RFP
61) COc1ccc(OC)c2[nH]c(=O)c(CCNS(=O)(=O)c3ccc(F)cc3)cc12
 : 10, 16, -6, -7, -5, i, 5, 1
62) CCOc1ccccc1N1CCN(CC(O)COc2ccc3c(C)cc(=O)oc3c2)CC1 (stereo not given)
 : -14, nt, nt, -2, -10, i, 3, -5
63) COc1ccc(CN(C(=O)c2ccc(C)cc2)C2CCS(=O)(=O)C2)cc1 (stereo not given)
 : -1, -8, -11, 0, 0, i, 1, 2
64) O=C(CO/N=C1\CCCc2nonc21)Nc1ccc(Br)cc1
 : -1, 2, -10, -4, nt, i, -3, -2
65) CC(NC(=O)CN(c1ccccc1F)S(C)(=O)=O)c1ccccc1 (stereo not given)
 : -5, -4, -7, -13, -21, i, 1, 6
66) Cc1ccc(NC(=O)CCn2cnc3ccccc3c2=O)cc1Cl
 : -7, nt, 0, 10, nt, i, 3, 3
67) OCCCNc1ncnc2c1ncn2[C@H]1CN(Cc2ccc(Cl)cc2)C[C@@H](CO)O1
 : nt, -10, nt, nt, 9, nt, 3, 2
68) CCc1nc2c(OCC(=O)c3ccc(F)cc3)cccn2c1N(C)C(=O)C(C)C
 : nt, -11, nt, nt, -12, nt, -4, 0
69) CC1CCN(CCCNC(=O)C2CCC(CNS(=O)(=O)c3ccccc3)CC2)CC1 (stereo not given)
 : 3, -3, -16, -2, 11, i, 1, 3
70) Cc1ccccc1SC1CCN(C(=O)C2CCC(=O)N(C3CC3)C2)CC1 (stereo not given)
 : 2, 3, -5, -14, -4, i, 3, -6
71) CCCc1cc(C(=O)OCC(=O)N(CCC)c2c(N)n(Cc3ccccc3)c(=O)[nH]c2=O)sc1C
 : nt, -5, -13, nt, nt, i, -4, -6
